FGF22 binding – FGF22 (human) thermal shift binding; Q9HCT0; recombinant FGF22 thermal shift, SYPRO orange fluorescence; percent of sucrose octasulfate shift, DMSO zero; calls only at 9.99 µM; 340,000 compounds, 1.5% hits;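 active = melting point raised past a set limit in the mean and every replicate; three in four hits are not shown here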
Target sequence (Q9HCT0 whole entry, looked up): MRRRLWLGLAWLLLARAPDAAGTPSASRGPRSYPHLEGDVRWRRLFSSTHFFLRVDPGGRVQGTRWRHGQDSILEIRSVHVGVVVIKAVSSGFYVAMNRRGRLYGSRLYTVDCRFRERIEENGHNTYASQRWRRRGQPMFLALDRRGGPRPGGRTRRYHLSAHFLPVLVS
Ecoli rRNA inh – inhibitors of bacterial rRNA selective over humanized ribosomes | 350,000 compounds, 1.6% hits | E. coli WT GFP vs humanized-ribosome RFP mutants, fluorescence, 24 h; hits give low values; DMSO median 0, no signal -100 | GFP signal change (wild-type ribosome), % (no concentration beside the values);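 active = significant combined selectivity score with lowered wild-type GFP, culture density cut under 30%, mutant RFP and density less affected; inactive = any of these conditions unmet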; also: one replicate is shown; some compounds called inactive have numbers as strong as hits
MLL AF4-AF9 inh – inhibitors of human MLL-AF4/AF9 interaction; P42568; AlphaScreen, biotin-AF4 peptide binding to FLAG-AF9; inhibition, % at 10 µM; 350,000 compounds, 0.47% hits; AID 651704;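 active = every replicate reaching a set inhibition limit, whatever the replicate mean, cut at about 25% in these data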;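 also: 0% = plate neutral control median and 100% = total signal loss; the record names both 10 and 1 µM as test concentration; the first replicate is given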
Target sequence (P42568 whole entry, looked up): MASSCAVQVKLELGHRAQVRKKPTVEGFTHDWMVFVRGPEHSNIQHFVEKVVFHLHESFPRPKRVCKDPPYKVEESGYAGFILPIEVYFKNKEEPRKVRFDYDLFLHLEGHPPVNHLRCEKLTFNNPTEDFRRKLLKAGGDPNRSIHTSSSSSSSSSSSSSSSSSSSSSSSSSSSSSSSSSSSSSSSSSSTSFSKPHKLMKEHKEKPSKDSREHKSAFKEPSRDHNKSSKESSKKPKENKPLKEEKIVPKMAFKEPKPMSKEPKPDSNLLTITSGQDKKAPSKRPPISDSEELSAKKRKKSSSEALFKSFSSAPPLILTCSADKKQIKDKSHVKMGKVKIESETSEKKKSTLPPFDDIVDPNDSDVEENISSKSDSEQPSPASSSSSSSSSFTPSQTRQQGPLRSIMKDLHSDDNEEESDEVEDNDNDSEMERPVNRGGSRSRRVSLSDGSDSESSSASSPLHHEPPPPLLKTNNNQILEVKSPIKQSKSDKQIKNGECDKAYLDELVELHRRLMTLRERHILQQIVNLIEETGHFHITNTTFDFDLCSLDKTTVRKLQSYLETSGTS
Ecoli rRNA inh OD600 – second read-out of Ecoli rRNA inh, no call of its own (marks repeat the call); OD600 change, %; measured here: OD600 growth;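 optical density of the mix in the first replicate; 0 = DMSO median and -100 = no signal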
Ecoli rRNA inh RFP – second read-out of Ecoli rRNA inh, no call of its own (marks repeat the call); RFP signal change, %; measured here: RFP humanized mutant strains;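 first replicate; 0 = DMSO median and -100 = no signal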
* marks the source's active call; other numbers are inactive results; i = inactive; & = joins results of further samples. A portion of the library; count on the stated rates, not on these rows.

FGF22 binding	Ecoli rRNA inh	Ecoli rRNA inh OD600	Ecoli rRNA inh RFP	MLL AF4-AF9 inh	molecule
i	4	-7	-4.0	-1.8	COCC(=O)Nc1ccc2c(c1)[C@@H]1C[C@H](CC(=O)N(C)C)O[C@@H](CO)[C@@H]1O2
i	0	2	-1.6	0.7	Cc1ccc(S(=O)(=O)Nc2ccc3c(c2)CC(=O)N([C@@H](C)CO)C[C@H](C)[C@@H](CN(C)CC2CC2)O3)cc1
i	1	0	-1.6	-2.1	CCCNC(=O)Nc1ccc2c(c1)OC[C@@H](C)N(C(=O)CC)C[C@H](C)[C@@H](OC)CN(C)C2=O
i	5	13	8.3	-2.4	N#CC1=C(N)Oc2cc(N)ccc2C1c1ccccc1 (stereo not given)
i	4	11	1.8	1.4	CCCC#Cc1ccc([C@H]2[C@@H](C#N)N(C(=O)CN3CCOCC3)[C@H]2CO)cc1
i	0	8	7.5	0.7	COc1ccccc1-c1cccc(-c2nc(C(=O)N3CCOCC3)cc3c2[C@H](CCO)N([S@@](=O)C(C)(C)C)C3)c1
i	0	2	0.5	-1.6	COc1ccccc1CN(C)C[C@H]1OCc2cn(nn2)CCCC(=O)N([C@@H](C)CO)C[C@@H]1C
i	4	-3	-1.4	-1.1	CN(C)C(=O)C[C@H]1C[C@@H]2c3cc(NS(=O)(=O)c4ccccc4)ccc3O[C@@H]2[C@H](CO)O1
i	0	7	3.0	5.6	C[C@H]1CN([C@@H](C)CO)C(=O)c2cc(C#CCc3ccccc3)cnc2O[C@@H]1CN(C)CC1CCOCC1
i	1	9	-0.6	-2.9	CN(C)C(=O)[C@@H]1[C@@H](CO)[C@@H]2Cn3c(ccc(/C=C/c4ccccc4)c3=O)[C@@H]2N1C(=O)c1cccnc1
i	-4	-28	-0.6	-1.3	O=C(c1ccc(F)cc1)N1CC(=O)N2[C@H](CO)[C@H](c3ccc(C#CCC4CCCC4)cc3)[C@@H]2C1
i	3	10	-1.4	-0.3	CCCC#Cc1cnc2c(c1)C(=O)N([C@H](C)CO)C[C@H](C)[C@@H](CN(C)C(=O)Nc1ccc(OC)cc1)O2
i	-2	-2	1.3	6.8	CC(C)C#Cc1cnc2c(c1)C(=O)N([C@H](C)CO)C[C@@H](C)[C@H](CN(C)Cc1cccc(F)c1)O2
i	13&0	15&6	0.6&-1.1	-5.7&-1.9&-5.0	C[C@H](CO)N1C[C@H](C)[C@@H](CN(C)Cc2cccnc2)Oc2ncc(-c3cccc(C#N)c3)cc2C1=O
i	2	-6	-4.7	-0.7	CN1C[C@@H]2[C@H](c3ccccc31)[C@@H](CO)N2Cc1ccccc1F
i	-6	-9	2.0	1.4	Cc1noc(C)c1S(=O)(=O)N(C)C[C@@H]1OCCCC[C@@H](C)Oc2ccc(NC(=O)c3ccccc3)cc2C(=O)N([C@H](C)CO)C[C@H]1C

Individual results from the list.
Entry for CCCC#Cc1cnc2c(c1)C(=O)N([C@H](C)CO)C[C@H](C)[C@@H](CN(C)C(=O)Nc1ccc(OC)cc1)O2 in Ecoli rRNA inh RFP: -1.4
Entry for C[C@H](CO)N1C[C@H](C)[C@@H](CN(C)Cc2cccnc2)Oc2ncc(-c3cccc(C#N)c3)cc2C1=O in MLL AF4-AF9 inh: -5.7&-1.9&-5.0

More entries:
FGF22 binding	Ecoli rRNA inh	Ecoli rRNA inh OD600	Ecoli rRNA inh RFP	MLL AF4-AF9 inh	molecule
i	1	10	-2.0	-2.2	COc1cccc(N2CCN(C(=O)c3cccc(S(=O)(=O)N4CCCC4)c3)CC2)c1
i	1	13	-2.0	0.6	CCN(C(=O)CSc1nnc(-c2ccccc2OC)n1N)c1c(N)n(Cc2ccccc2)c(=O)[nH]c1=O
i	0	8	-0.5	2.5	CC(C)NC(=O)N(C)C[C@@H]1Oc2ccc(NC(=O)Cc3cn(C)c4ccccc34)cc2CC(=O)N([C@@H](C)CO)C[C@H]1C
i	3	-1	-0.7	-1.6	CN1CCN(C(=O)C[C@@H]2C=C[C@@H](NC(=O)Cc3ccccn3)[C@H](CO)O2)CC1
i	-2	4	-7.5	-12	CC(C)(O)C#Cc1ccc([C@@H]2[C@@H](CO)N3CCCCN(C(=O)c4ccc(F)cc4)C[C@@H]23)cc1
i	-57	-75	-16	6.4	C[C@@H]1CN([C@H](C)CO)S(=O)(=O)c2ccc(-c3ccccc3F)cc2O[C@H]1CN(C)Cc1cccnc1
i	-7	1	0.2	2.3	C[C@@H]1CN([C@H](C)CO)S(=O)(=O)c2ccc(-c3cccc(C(=O)N(C)C)c3)cc2O[C@@H]1CN(C)C(=O)Nc1ccc(F)cc1
i	2	7	-3.7	0.8	CN1c2ccc(C#Cc3cccnc3)cc2[C@H]2[C@H](CCN2C(=O)C2CCOCC2)[C@@H]1CO
i	-12	-49	6.0	-9.3	O=C(C[C@H]1CC[C@@H]2[C@H](COC[C@@H](O)CN2Cc2cccc(C(F)(F)F)c2)O1)NCCc1ccccc1
i	5	10	4.3	17	CNC[C@H]1Oc2ncc(C#CC3CCCCC3)cc2C(=O)N([C@@H](C)CO)C[C@H]1C
i	0	3	-0.5	-9.4	C[C@@H]1CN([C@H](C)CO)C(=O)c2cc(-c3ccc(F)cc3)cnc2O[C@@H]1CN(C)Cc1cncnc1
i	-4	0	-0.8	-0.7	Cc1ccc(S(=O)(=O)Nc2ccc3c(c2)C(=O)N([C@H](C)CO)C[C@H](C)[C@H](CN(C)S(=O)(=O)c2cn(C)cn2)OCCCC[C@H](C)O3)cc1
i	8&-1	3&2	2.9&0.5	-6.6&-0.4&-1.9	COc1ccccc1NC(=O)N(C)C[C@@H]1OCc2cnnn2CCCC(=O)N([C@@H](C)CO)C[C@H]1C
i	-1	-4	-0.8	-0.4	COCC(=O)Nc1ccc2c(c1)C(=O)N(C)C[C@@H](OC)[C@@H](C)CN(CCC(F)(F)F)[C@H](C)CO2
i	3&8	2&33	2.0&4.2	-13&-0.9	C[C@@H]1CN([C@H](C)CO)C(=O)CCCn2cc(nn2)CO[C@H]1CN(C)C(=O)c1ccncc1
i	11	9	-0.4	-2.3	COc1ccc(-c2nc(SC(C)C(=O)NC3CC3)n[nH]2)cc1 (stereo not given)
i	2	-1	0.8	-1.1	CCC(=O)N[C@H]1C=C[C@H](CC(=O)NCCN2CCCCC2)O[C@@H]1CO
i	1	-6	0.7	-18	CO[C@@H]1CN(C)C(=O)c2cc(NC(=O)Nc3c(C)noc3C)ccc2OC[C@@H](C)N(CCC(F)(F)F)C[C@@H]1C
i	-1	-10	-0.7	-1.4	CC(=O)N1CC2(C1)[C@H](c1ccccc1)[C@@H](CO)N2CC1CCOCC1
i	4	5	1.1	3.4	CCCC(=O)Nc1ccc2c(c1)OC[C@@H](C)N(Cc1ccc(-c3ccccn3)cc1)C[C@@H](C)[C@H](OC)CN(C)C2=O
i	-5	-2	5.2	-0.9	Cc1ccc(S(=O)(=O)Nc2cccc3c2O[C@@H](CN(C)S(=O)(=O)c2cccs2)[C@@H](C)CN([C@H](C)CO)C3=O)cc1
i	-12	-32	3.6	32*	COc1ccc2c3c([nH]c2c1)[C@H](CO)N(C(=O)CN(C)C)CC31CN(Cc2ccccc2Cl)C1
i	12	2	-1.7	-2.5	CN(C)CCN1CCN(C2CN(CCc3ccccc3)S(=O)(=O)C2)CC1 (stereo not given)
i	-1	12	2.4	-4.8	COc1ccc2c3c([nH]c2c1)[C@H](CO)N(S(C)(=O)=O)CC31CCN(C(=O)Cc2cccnc2)CC1
i	-3	1	0.6	-0.8	C[C@@H]1CN([C@H](C)CO)C(=O)Cc2cc(NC(=O)CCC(F)(F)F)ccc2O[C@H]1CN(C)S(=O)(=O)c1ccccc1
i	6	10	5.2	0.5	CN(C(=O)CSc1nnc(-c2cccs2)n1C1CC1)C1CCS(=O)(=O)C1 (stereo not given)
i	9	14	0.0	-1.9	COc1ccc(C(=O)OCC(=O)Nc2c(C)n(C)n(-c3ccccc3)c2=O)cc1OC
i	-1	-11	3.0	-1.6	Cc1noc(C)c1S(=O)(=O)Nc1ccc2c(c1)C(=O)N([C@@H](C)CO)C[C@@H](C)[C@H](CN(C)S(=O)(=O)c1ccc(F)cc1)OCCCC[C@@H](C)O2
i	3	7	-3.8	-3.3	CC(C)NC(=O)N(C)C[C@H]1Oc2ccc(NC(=O)CCC(F)(F)F)cc2C(=O)N([C@@H](C)CO)C[C@H]1C
i	0&18	8&19	-0.7&3.3	0.8&-1.1	C[C@H]1CN([C@@H](C)CO)C(=O)CCCn2nncc2CO[C@@H]1CN(C)CC1CC1
i	2	-5	-2.8	-1.7	CCCC(=O)N1CCC2(CC1)CN(C(=O)COC)[C@@H](CO)c1c2c2ccc(OC)cc2n1C
i	2	4	-4.6	-5.3	COc1ccc(NC(=O)Nc2ccc3c(c2)C(=O)N([C@H](C)CO)C[C@@H](C)[C@@H](CN(C)CC2CCCCC2)OCCCC[C@@H](C)O3)cc1

Record cards, from the list above. Order of screens: FGF22 binding | Ecoli rRNA inh | Ecoli rRNA inh OD600 | Ecoli rRNA inh RFP | MLL AF4-AF9 inh
COc1ccc(C(=O)OCC(=O)Nc2c(C)n(C)n(-c3ccccc3)c2=O)cc1OC reads i | 9 | 14 | 0.0 | -1.9
CCCC(=O)N1CCC2(CC1)CN(C(=O)COC)[C@@H](CO)c1c2c2ccc(OC)cc2n1C reads i | 2 | -5 | -2.8 | -1.7
COc1ccc(NC(=O)Nc2ccc3c(c2)C(=O)N([C@H](C)CO)C[C@@H](C)[C@@H](CN(C)CC2CCCCC2)OCCCC[C@@H](C)O3)cc1 reads i | 2 | 4 | -4.6 | -5.3
Cc1noc(C)c1S(=O)(=O)Nc1ccc2c(c1)C(=O)N([C@@H](C)CO)C[C@@H](C)[C@H](CN(C)S(=O)(=O)c1ccc(F)cc1)OCCCC[C@@H](C)O2 reads i | -1 | -11 | 3.0 | -1.6
CC(C)NC(=O)N(C)C[C@H]1Oc2ccc(NC(=O)CCC(F)(F)F)cc2C(=O)N([C@@H](C)CO)C[C@H]1C reads i | 3 | 7 | -3.8 | -3.3

Following part:
FGF22 binding	Ecoli rRNA inh	Ecoli rRNA inh OD600	Ecoli rRNA inh RFP	MLL AF4-AF9 inh	molecule
i	5	7	1.4	2.2	NCCN1C(=O)c2ccccc2C1(O)c1ccc(Cl)cc1 (stereo not given)
i	0	14	0.6	-2.9	C[C@@H]1CN([C@@H](C)CO)C(=O)c2cc(NC(=O)c3ccncc3)ccc2O[C@H]1CN(C)S(=O)(=O)c1cn(C)cn1
i	-2	-10	0.4	0.4	C[C@H](CO)N1C[C@H](C)[C@H](CN(C)Cc2ccc(C(=O)Nc3ccccc3N)cc2)Oc2c(NC(=O)Nc3ccc(C(F)(F)F)cc3)cccc2C1=O
i	0	6	-2.5	-2.1	C[C@H]1CN([C@@H](C)CO)C(=O)c2cccc(N(C)C)c2O[C@H]1CN(C)Cc1ccc(C(=O)O)cc1
i	8	10	1.7	-2.5	C[C@H](CO)N1C[C@H](C)[C@H](CN(C)S(C)(=O)=O)Oc2ccc(NC(=O)CCCCCC(=O)Nc3ccccc3N)cc2CC1=O
i	5	1	0.7	0.2	CN(Cc1ccccc1Cl)C(=O)CCNC(=O)c1ccco1
i	0	-7	-2.3	-1.1	CCOc1ccc(NC(=O)CN(C)C(=O)C2CCN(C(=O)Nc3ccccc3)CC2)cc1OCC
i	8	19	1.2	1.3	Cc1ccc([C@H]2C[C@@H](O)[C@H](n3cc(C4CC4)nn3)CN2Cc2cccs2)cc1
i	5	6	-1.1	-0.3	CN(C)CCCNC(=O)C[C@@H]1C=C[C@H](NS(=O)(=O)c2ccc(F)cc2)[C@@H](CO)O1
i	-1	5	1.3	-0.3	Cc1ccc(S(=O)(=O)N(C)C[C@@H]2Oc3ccc(NS(=O)(=O)c4cccs4)cc3CC(=O)N([C@H](C)CO)C[C@@H]2C)cc1
i	0	11	-2.9	-1.6	COc1cccc(S(=O)(=O)N[C@H]2C=C[C@@H](CC(=O)NCc3ccccc3)O[C@H]2CO)c1
i	-9	-7	1.8	-15	CN1C(=O)c2cc(NC(=O)NCc3ccccc3)ccc2OC[C@@H]2O[C@@H](CC(=O)NCC3CCCCC3)CC[C@H]21
i	-1	4	-3.9	0.2	C[C@H](CO)N1C[C@H](C)[C@H](CN(C)Cc2ccc3c(c2)OCO3)Oc2c(NC(=O)NC3CCCCC3)cccc2C1=O
i	-37	-42	-6.5	0.3	COc1ccccc1C(=O)N1CCN(c2nc3cc(C)cc(C)c3cc2C#N)CC1
i	-37	-70	0.0	0.9	CN1c2ccc(Br)cc2[C@@H]2[C@@H](CCN2C(=O)C2CCCCC2)[C@@H]1CO
i	2	-3	-0.3	2.1	C[C@@H]1CN([C@@H](C)CO)S(=O)(=O)c2ccc(C#CCN(C)C)cc2O[C@@H]1CN(C)C(=O)C1CCCCC1
i	0	-4	-0.4	0.9	CO[C@H]1CN(C)C(=O)c2ccc(NC(=O)Nc3ccccc3)cc2OC[C@@H](C)NC[C@@H]1C

High-throughput results (PubChem BioAssay)
